# NPYLR7 agonist: mosquito NPYLR7 agonism | HEK293T NPYLR7/Galpha15, GCaMP6s calcium fluorescence | activation, % at 10 µM | 270,000 tested, 0.15% active; in the data active = activation above about 40%;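 also: 0% = vehicle and 100% = reference agonist at the receptor; some compounds past the cut are filed as inactive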
# NPYLR7 agonist max-min: second read-out of NPYLR7 agonist, no call of its own (marks repeat the call); activation, %; measured here: Max-Min RFU normalised activation; some inactives read as strong as hits;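 span of the calcium signal over five minutes; 0% = vehicle and 100% = native peptide agonist; compound fluorescence can raise it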
# The depositor's hits bear a star; & = joins results of further samples. The list is partial; the hit share may differ from the screen's.
SMILES,NPYLR7 agonist,NPYLR7 agonist max-min
Cc1ccc(C(=O)N=c2sccn2C)o1,0,-8
Cc1nc2c(OCC(=O)c3ccc(Cl)cc3Cl)cccn2c1N(C)CC1CC1,8,-2
Cc1ccc(Cl)c2sc(N(CCN(C)C)C(=O)c3ccc(S(C)(=O)=O)cc3)nc12,2,-4
CCOc1ccc2nc(SCC(=O)Nc3ccc(C)cc3)sc2c1,-6,-12
O=C(O)C=CC1=Cc2ccccc2OC1,1,2
CN(Cc1ccccc1)C(=O)c1nn2c(C(F)(F)F)cc(-c3ccccc3)nc2c1Cl,-13,-20
C=CCN(Cc1ccccc1OC)C(=O)C(C)c1ccccc1 (stereo not drawn),-4,-5
Cc1cccc(C)c1N1C[C@@H](CN2CCN(c3ccc(C(=O)O)cc3)CC2)[C@H](C(C)C)S1(=O)=O,7,15
C(#Cc1ccccc1)CN1CCN(C/C=C/c2ccccc2)CC1,7,-1
CC(C)CCn1c2ccccc2c2nc3ccccc3nc21,-2,-3
CS(=O)(=O)N1CCN(c2nc(C(F)(F)F)nc3ccsc23)CC1,4,0
CC(C)(C)c1ccccc1OCC(=O)N1CCCNCC1,0,-2
CCOc1ncc(C(=O)Nc2c(C)n[nH]c2C)cc1Cl,-1,0
O=C(NCc1ccco1)C1CC=CCC1C(=O)N1CCN(c2ccccn2)CC1 (stereo not drawn),-8,-16
CN1CCCC2(CCN(C(=O)C(=O)c3cccnc3)C2)C1=O (stereo not drawn),-1,-5
Cc1cnn(Cc2cccc(Cl)c2)c1NC(=O)CN1CCOC1=O,14,3
CC(C)C1CC(C)(C)c2ccc(O)cc21 (stereo not drawn),13,12
CCn1cc(NC(=O)NCCn2ccc3ccccc32)c2ccccc21,17,12
CC(C)(C)NC(=O)N1CCC2(CC1)NC(=O)c1c(Cl)cccc1N2,2,5
COCCOC(=O)C1=C(C)NC2=C(C(=O)CC(c3ccc(OC)cc3)C2)C1c1ccc(OCc2ccccc2)cc1 (stereo not drawn),13,10
Cc1nonc1OCCNC(=O)c1c(C)nc2sccn12,4,-6
Cn1cnc2c1c(=O)n(CCCSc1nnc(N)s1)c(=O)n2C,-1,-4
NCc1ccc(Cn2cccn2)cc1,-2,-4
CCCCCOc1ccc(C(=O)NC23CC4CC(CC(C4)C2)C3)cc1OCCCCC,5,0
CCS(=O)(=O)Oc1cccc(CN(C(=O)c2ccccc2C)C(C)C)c1,4,9

# A different layout for some results above:
# Every second line gives: NPYLR7 agonist	NPYLR7 agonist max-min
> Cc1ccc(Cl)c2sc(N(CCN(C)C)C(=O)c3ccc(S(C)(=O)=O)cc3)nc12
 : 2	-4
> CCOc1ccc2nc(SCC(=O)Nc3ccc(C)cc3)sc2c1
 : -6	-12
> O=C(O)C=CC1=Cc2ccccc2OC1
 : 1	2
> CN(Cc1ccccc1)C(=O)c1nn2c(C(F)(F)F)cc(-c3ccccc3)nc2c1Cl
 : -13	-20
> C=CCN(Cc1ccccc1OC)C(=O)C(C)c1ccccc1 (stereo not drawn)
 : -4	-5
> Cc1cccc(C)c1N1C[C@@H](CN2CCN(c3ccc(C(=O)O)cc3)CC2)[C@H](C(C)C)S1(=O)=O
 : 7	15
> C(#Cc1ccccc1)CN1CCN(C/C=C/c2ccccc2)CC1
 : 7	-1
> CC(C)CCn1c2ccccc2c2nc3ccccc3nc21
 : -2	-3
> CS(=O)(=O)N1CCN(c2nc(C(F)(F)F)nc3ccsc23)CC1
 : 4	0
> CC(C)(C)c1ccccc1OCC(=O)N1CCCNCC1
 : 0	-2
> CCOc1ncc(C(=O)Nc2c(C)n[nH]c2C)cc1Cl
 : -1	0
> O=C(NCc1ccco1)C1CC=CCC1C(=O)N1CCN(c2ccccn2)CC1 (stereo not drawn)
 : -8	-16
> CN1CCCC2(CCN(C(=O)C(=O)c3cccnc3)C2)C1=O (stereo not drawn)
 : -1	-5
> Cc1cnn(Cc2cccc(Cl)c2)c1NC(=O)CN1CCOC1=O
 : 14	3
> CC(C)C1CC(C)(C)c2ccc(O)cc21 (stereo not drawn)
 : 13	12
> CCn1cc(NC(=O)NCCn2ccc3ccccc32)c2ccccc21
 : 17	12
> CC(C)(C)NC(=O)N1CCC2(CC1)NC(=O)c1c(Cl)cccc1N2
 : 2	5
> COCCOC(=O)C1=C(C)NC2=C(C(=O)CC(c3ccc(OC)cc3)C2)C1c1ccc(OCc2ccccc2)cc1 (stereo not drawn)
 : 13	10
> Cc1nonc1OCCNC(=O)c1c(C)nc2sccn12
 : 4	-6
> Cn1cnc2c1c(=O)n(CCCSc1nnc(N)s1)c(=O)n2C
 : -1	-4
> NCc1ccc(Cn2cccn2)cc1
 : -2	-4
> CCCCCOc1ccc(C(=O)NC23CC4CC(CC(C4)C2)C3)cc1OCCCCC
 : 5	0
> CCS(=O)(=O)Oc1cccc(CN(C(=O)c2ccccc2C)C(C)C)c1
 : 4	9

# Returning to the listing, repeating the four entries before the break.
SMILES,NPYLR7 agonist,NPYLR7 agonist max-min
Cn1cnc2c1c(=O)n(CCCSc1nnc(N)s1)c(=O)n2C,-1,-4
NCc1ccc(Cn2cccn2)cc1,-2,-4
CCCCCOc1ccc(C(=O)NC23CC4CC(CC(C4)C2)C3)cc1OCCCCC,5,0
CCS(=O)(=O)Oc1cccc(CN(C(=O)c2ccccc2C)C(C)C)c1,4,9
COc1cccc(-c2cc(CC3(O)CCN(CC4CC=CCC4)CC3)on2)c1 (stereo not drawn),-1,-1
COc1cc(C#N)ccc1OC(C)C(=O)Nc1cccc(C)c1 (stereo not drawn),-2,-2
CCOC(=O)C1(CCOc2ccccc2)CCCN(C(=O)C2CCOCC2)C1 (stereo not drawn),3,5
CCOC(=O)c1cc(OC)c2cccc(CN3CCC(C)(C(=O)NCCOC)C3)c2c1 (stereo not drawn),4,-1
CCCCS(=O)(=O)N1CCN(c2cc(-n3nc(C)cc3C)nc(C)n2)CC1,-8,-14
Cc1ccc(-n2nnc3c(=O)n(Cc4c(F)cccc4Cl)cnc32)cc1C,-2,-6
Cc1cc(C)c(NC(=O)CN(C)Cc2ccc(O)c3ncccc23)c(C)c1,7,6
COc1ccc(N2CCN(c3cc(C(=O)NCCOC(C)C)c4ccccc4n3)CC2)cc1,3,-4
O=C(CCCc1ccccc1)N1CCN(c2ccc3nnc(-c4ccco4)n3n2)CC1,-2,-4
CS(=O)(=O)NC(=O)C(Sc1ccccc1F)c1ccccc1 (stereo not drawn),3,3
O=C(Cc1ccc2c(c1)OCO2)N1CCOC(c2ccccc2)C1 (stereo not drawn),24,27
CCn1cc(NC(=O)N2CCC(O)CC2)c2ccccc21,0,-6
O=C(NCC(=O)N1CCCCC1)c1sc2ccccc2c1Cl,-1,-2
CC(C)NC(=O)CC1Sc2ccc(C(F)(F)F)cc2NC1=O (stereo not drawn),3,-2
CCCc1[nH]n(-c2ccccc2)c(=O)c1C1=C(N2CCC(C)CC2)C(=O)N(Cc2ccc(F)cc2)C1=O,19,31
CO[C@H]1/C=C/O[C@@]2(C)Oc3c(C)c(O)c4c(O)c(c5c(nc6cc(C)ccn65)c4c3C2=O)NC(=O)/C(C)=C\C=C\[C@H](C)[C@H](O)[C@@H](C)C(O)[C@@H](C)[C@H](OC(C)=O)[C@@H]1C (stereo partly drawn),-10&-4,-12&-7
COc1ccc(S(=O)(=O)N2CCN(c3nc4ccccc4c(=O)n3C)CC2)cc1,2,1
O=c1ccc(-c2cccnc2)nn1CCNS(=O)(=O)c1ccc(C(F)(F)F)cc1,12,6
Cc1nc(N)nc(C(F)(F)F)c1Br,16,10
COc1cccc(Nc2nc(C(N)Cc3ccc(N)cc3)cs2)n1 (stereo not drawn),-8,-11
CCOC(=O)C1CCCN(CC(=O)N2CCNC2=O)C1 (stereo not drawn),1,-2
CC1CC1C(=O)NCCc1ccc(F)cc1Cl (stereo not drawn),-3,-10
Cc1ccc(N=Cc2nc(-c3ccccc3F)oc2O)c(C)c1,-3,-8
CN(Cc1cccc(Cl)c1Cl)C(=O)Nc1ccccn1,5,1
CCC(C)NC(=O)CSc1nc2c(-c3ccccc3)c[nH]c2c(=O)n1C (stereo not drawn),2,-1

# (cont.)
SMILES,NPYLR7 agonist,NPYLR7 agonist max-min
NC(=S)NN=Cc1ccc(Cl)cc1Cl,6,8
CCC(C)NC(=O)C1COC2(CCN(C(=O)c3cccc(F)c3)CC2)N1C(=O)c1cccc(C)c1 (stereo not drawn),-1,4
CCCOC(=O)C1=C(C)NC2=C(C(=O)CC(c3ccc(Cl)cc3)C2)C1c1ccc(O)cc1 (stereo not drawn),1,3
COc1ccnc(Nc2ccc3c(c2)nc2n3CCCCC2)n1,0,-1
O=C(CSc1nc2ccccc2s1)NNC(=S)Nc1ccc(Cl)cc1,-7,-14
COc1ccc(Oc2cc(-c3ccccc3)nc(SCc3cccc([N+](=O)[O-])c3)n2)cc1,7,25
CNc1oc(C)nc1S(=O)(=O)c1ccccc1,-2,-4
Cc1ccc(O)c(NC(=O)CC(NCCC2=CCCCC2)C(=O)O)c1 (stereo not drawn),2,2
NC(=O)CSc1ncnc2nc[nH]c12,0,6
COc1cccc(-c2nc(C=Nc3ccc(I)cc3C)c(O)o2)c1,3,-2
CCC(C)N(CC(=O)Nc1nc(C)c(C)s1)S(=O)(=O)c1ccc2ccccc2c1 (stereo not drawn),5,5
Cc1ccc(C2(O)CCN(Cc3ccc(Oc4ncccn4)cc3)CC2)nc1,4,-3
O=C(NCC1CC1)c1cnc(N2CCN(Cc3ccccc3)C2=O)s1,-1,-3
Cc1ccccc1OCC(O)CN(CCC(C)C)Cc1cccs1 (stereo not drawn),7,20
Cc1cc2c(c(=O)n1C)C(C(C)C)C(C#N)C(=N)O2 (stereo not drawn),0,2
COc1ccc(-c2nnc(NC(=O)C(NC(=O)c3cccc(Cl)c3)C(C)C)s2)cc1 (stereo not drawn),28,27
COc1cc(-c2cc(NC=O)c3ncc(-c4ccc(C(C)=O)cc4)n3c2)ccc1O,-5,-6
COCC1CCCN(c2nncc(-c3ccc(Cl)cc3)n2)C1 (stereo not drawn),0,-2
O=c1oc2ccccc2n1CN1CCCC1c1nc2ccccc2s1 (stereo not drawn),7,7
CCn1c(SCc2ccc(C(=O)NCc3ccc4c(c3)OCO4)cc2)nnc1-c1ccc([N+](=O)[O-])cc1,0,1
COc1ccc(CCNC(=O)C(C2CCCC2)N2CCN(C(=O)c3ccc(Cl)c(Cl)c3)CC2)cc1 (stereo not drawn),-10,-9
C=CCCC(O)(CCC=C)c1ccc(CN(Cc2cccc(OC)c2)CC2CCCO2)o1 (stereo not drawn),1,9
CCC1SC(c2cc(OC)ccc2OC)N(CCN2CCNCC2)C1=O (stereo not drawn),-4,-10
Fc1cccc(-c2cnnc(NCC3(c4ccccc4)CCOCC3)n2)c1,4,1
O=C(Cc1c(Cl)cccc1Cl)NC1CCC(O)CC1 (stereo not drawn),8,5

# The results go on:
SMILES,NPYLR7 agonist,NPYLR7 agonist max-min
COCCn1c(C)cc(O)c(C(c2ccc(Cl)cc2)N2CCN(C)CC2)c1=O (stereo not drawn),9,3
CN1C(=O)C2(CCN(c3nc(C(N)=O)cs3)CC2)c2ccccc21,2,1
Cc1noc(C)c1S(=O)(=O)N1CCCC(C(=O)Nc2cccnc2)C1 (stereo not drawn),8,3
O=C(O)C1(Cc2ccccc2C(F)(F)F)CCN(c2ncccn2)CC1,8,6
CC(C)c1cc(C2CCN(C(=O)Cn3cnnn3)CC2)[nH]n1,-3,-3
CCOc1ccccc1CC(=O)N1C[C@@H]2[C@@H]3CC[C@@H](C3)[C@@H]2C1,6,3
Cc1ccc(N2CCCC2)c(C(=O)OCc2noc(C)n2)c1,5,4
COCCCN(CC(=O)N1CC(=O)N(c2cccc(Cl)c2C)C1)C(=O)c1ccccc1Cl,20,15
O=C(CCn1cnnc1)NC1CC(=O)N(Cc2ccccc2C(F)(F)F)C1 (stereo not drawn),5,3
CC(C)Oc1cccc(CCNC(=O)C2CCC(O)CC2)c1 (stereo not drawn),1,-3
CCS(=O)(=O)c1cccc(C(=O)N(Cc2ccccn2)c2nc3c(OC)cccc3s2)c1,-2,-6
C#CC(C)(CC)OCC(O)CN1CCN(CC)CC1 (stereo not drawn),1,2
O=c1ccn2c(SCc3ccc([N+](=O)[O-])cc3)nnc2[nH]1,7,3

# From PubChem
